TAR Tat displ – HIV-1 TAR-Tat binding disruption | HIV-1 TAR RNA, Tat peptide displacement FRET; active compounds read high | z-score (concentration not given with the values) | actives 0.6% (n = 100,000);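 further: score is relative to mean and SD of negative controls; some compounds called inactive have numbers as strong as hits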
CDC25B CDK2 inh – human CDC25B-CDK2/CyclinA binding inhibition. HTRF CDC25B-CDK2/CyclinA binding, anti-His/anti-Flag; active compounds read high. P30305+P24941. actives 0.72% (n = 94,000). z-score (concentration not given with the values);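 further: score is relative to mean and SD of negative controls; strong numbers were not always called active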
Active calls of the source: *; nt = not tested or not shown.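 How the source made its calls: active means z-score from 3 up in half or more of its runs; inactive means the rest.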

SMILES	TAR Tat displ	CDC25B CDK2 inh
Cn1cc(S(=O)(=O)N2CCc3ccccc32)cc1C(=O)Nc1ccccc1F	-9.24	nt
CC1CCCC(N2CNc3nc4ccccc4n3C2)C1C (stereo not drawn)	-0.72	0.18
Cc1cccc(CNc2nc(NCCCO)nc3c2cnn3C)c1	1.15	nt
CC(C)=C1C2C=CC1C1C(=O)N(c3ccc(F)cc3)C(=O)C21 (stereo not drawn)	nt	-1.35
CC(=O)Oc1ccc2c(c1)C(C)=CC(C)(C)N2C(C)=O	0.11	-0.63
O=C(Nc1cccc(Cl)c1)OC1CCCCc2cccnc21 (stereo not drawn)	nt	-1.89
COc1ccc(CNS(=O)(=O)c2ccc(-c3ccc(=O)[nH]n3)s2)cc1	0.33	nt
O=C(CSc1nccn(-c2cccc(F)c2)c1=O)c1ccc(Cl)cc1	-0.05	nt
COC(=O)c1cc(C(=O)Nc2ccccc2C(N)=O)cc([N+](=O)[O-])c1	nt	-0.2
c1cncc(-c2n[nH]c(-c3ccncc3)n2)c1	nt	0.26
Cc1cc(=O)nc2c3ccccc3n(CC(=O)NCCCN3CCN(C4CCCCC4)CC3)n12	-1.39	-2.87
COC(=O)c1scc2c(Sc3nccn3C)cc(C(F)(F)F)nc12	nt	-0.24
O=S(=O)(c1ccc(F)cc1)N1CCCC1c1cccs1 (stereo not drawn)	0.07	1.54
FC(F)(F)c1ccc(N2CCN(c3ccc(NC(=S)NCC4CCCO4)cn3)CC2)nc1 (stereo not drawn)	nt	0.81
O=C(Nc1ccc(Br)cc1)C1CCN(S(=O)(=O)c2cnc[nH]2)CC1	0.64	0.04
CC(CS(=O)(=O)c1ccc2c(c1)NC(=O)CS2)C(=O)N1CCc2ccccc2C1 (stereo not drawn)	-2.98	nt
CC1(C)CCC[C@@]2(C)C1[C@@H](O)C[C@]1(C)C2CC[C@@H]2[C@@]3(C)CC[C@H](C(C)(C)O)[C@@H]3CC[C@@]21C (stereo partly drawn)	1.24	nt
COc1ccc(COC(=O)C2=C(C)NC3=C(C(=O)CC(C)(C)C3)C2c2ccc(O)c(OC)c2)cc1 (stereo not drawn)	1.48	-3.02
Cc1nc2n[nH]c(N)c2c2c1CCCC2	nt	0.26
CCOc1ccc(-n2ccc(=O)c(C(=O)Nc3nc4ccc(S(C)(=O)=O)cc4s3)n2)cc1	0.67	-0.4
O=C(c1cc(-c2ccc3c(c2)OCO3)on1)N1CCN(C(c2ccccc2)c2ccccc2)CC1	nt	-1.14
N#Cc1c(Cl)cccc1Oc1ccc(S(=O)(=O)Oc2c(Cl)cccc2Cl)cc1	nt	-1.04
CCCNC(=O)c1cc(C(C)C)on1	0.48	-0.6
O=C1CC(c2ccc(F)cc2)Cc2nc(N3CCN(Cc4ccccc4)CC3)ncc21 (stereo not drawn)	-0.81	-1.3
CNC(=O)c1c(N2CCCC2=O)c2cc(OC)ccc2n1C	0.7	nt
Cc1ccc2oc(=O)c3cnn(CC(=O)N4C(C)CCCC4C)c3c2c1 (stereo not drawn)	2.96	-1.46
CC1=C(C(N)=O)C(c2ccncc2)n2ncnc2N1 (stereo not drawn)	1.27	nt
O=C(Nc1nnc2n1CCCS2)c1cc2ccccc2o1	1.53	nt
CC1CN(C(=O)N2CCC(C(=O)NC3CCCC3)CC2)c2ccccc2O1 (stereo not drawn)	-0.16	nt
Cc1cc(S(=O)(=O)[C@H]2CS(=O)(=O)C[C@@H]2N2CCOCC2)ccc1F	0.58	-1.22

Overlap with the part before: 3 compounds, followed by the next part.
SMILES	TAR Tat displ	CDC25B CDK2 inh
O=C(Nc1nnc2n1CCCS2)c1cc2ccccc2o1	1.53	nt
CC1CN(C(=O)N2CCC(C(=O)NC3CCCC3)CC2)c2ccccc2O1 (stereo not drawn)	-0.16	nt
Cc1cc(S(=O)(=O)[C@H]2CS(=O)(=O)C[C@@H]2N2CCOCC2)ccc1F	0.58	-1.22
Cc1nc(SCc2cc(=O)n3c4c(sc3n2)CCCC4)n[nH]1	0.91	nt
COc1ccc(S(=O)(=O)Nc2nccs2)cc1OC	nt	-0.57
Cc1nc(-c2ccc(-c3ccccc3)cc2)cs1	1.75	-1.63
O=C(NCCN1CCOCC1)c1c2c(nc3ccccc13)C(=O)N(C1CCCCC1)C2	1.3	nt
O=C(c1cc2ccccc2o1)N1CCN=C1SCc1ccc(Br)cc1	nt	-0.31
O=C1N(Cc2ccc(Br)cc2)c2ccccc2S(=O)(=O)N1c1cc(F)ccc1F	2.01	nt
Clc1ccc(C2=NN3C(C2)c2ccccc2OC3c2ccco2)cc1 (stereo not drawn)	nt	-1.18
COc1ccc(OC)c(C2SCCN2S(=O)(=O)c2ccccc2)c1 (stereo not drawn)	1.11	-0.77
Cc1cc(C)nc(Sc2ccccc2)n1	1.06	-2.52
NC(=O)C1(N2CCCCC2)CCN(Cc2nc3ccccc3c(=O)[nH]2)CC1	nt	-1.22
Cc1ccc(NS(=O)(=O)c2cc(-c3noc(C4CC4)n3)cs2)c(Cl)c1	1.04	nt
CCc1nc2c(=O)oc3ccccc3c2n1C	1.28	0.08
CCCNc1cc(C)nc2c(-c3ccc(F)cc3)c(C)nn12	0.14	-1.65
NS(=O)(=O)c1ccc(NC(=O)CSc2nc3ccccc3s2)cc1	0.91	-0.06
COc1cc(NC(C)=O)ccc1/C=N/NC(N)=S	nt	-1.69
CSC(=CC(=O)c1sc2scc(C)c2c1C)SC	nt	-2.27
O=C(CN1C(=O)c2ccccc2Sc2ncccc21)N1CCCC1	1.75	nt
CCn1nc(C)c(CCNS(=O)(=O)Cc2ccccc2)c1C	1.13	nt
Fc1cccc(CSc2ccc3nnc(-c4ccccc4)n3n2)c1	nt	-1.61
O=C(O)CSCc1nc2cccnc2n1C1CCCCC1	1	nt
CCOC(=O)c1cc(/C(N)=N/O)c(C)nc1C(F)(F)F	nt	-2.18
COc1cccc(-c2[nH]nc3nc(-c4cccc(OC)c4OC)cc(C(=O)O)c23)c1	0.73	-0.19
COc1cc2c(cc1NS(=O)(=O)c1ccc(F)cc1)n(C)c(=O)n2C	0.87	-1.39
O=c1[nH]c2cc(Cl)c(Cl)cc2[nH]c1=O	-1.06	nt
CN1C(=O)C2(c3ccccc31)C(C(=O)NCc1ccc3c(c1)OCO3)CC1CCCN12 (stereo not drawn)	-0.28	nt
CCc1nn2c(=O)cc(CSc3nc4ccc(NC(=O)CC(C)C)cc4s3)nc2s1	0.91	nt
CCOC(=O)c1cnc(COc2ccc(C(C)(C)C)cc2)[nH]c1=O	nt	-0.88
O=C(Nc1cccc(S(=O)(=O)N2CCCC2)c1)c1nc(-n2cnnc2)ccc1Br	2.42	nt
CC(C)Nc1cc(N2CCN(c3ccccn3)CC2)c2noc3c2c1C(=O)c1ccccc1-3	1.22	-1.24
CC(C)Cn1cc(NC(=O)Nc2nc3ccccc3s2)c2ccccc2c1=O	0.02	nt
Cc1ccc2nc(SCc3cn4cc(Cl)ccc4n3)[nH]c2c1	nt	1.49
Cc1ccc(-c2cnc(C3CC3)o2)cc1S(=O)(=O)Nc1ccccc1	0.96	nt
Cc1c2cccn2cc[n+]1CC(=O)c1ccccc1	-6.23	-0.2
O=C(Cn1ncn2c(cc3cc(F)ccc32)c1=O)NCCCN1CCOCC1	11.7	-2.41
O=C(Cn1c(=O)c2cccn2c2cccnc21)NCCCN1CCOCC1	0.88	nt
CCCCNC(=O)Nc1cn(CC(C)C)c(=O)c2ccccc12	-0.08	nt
COCCCNc1nc(NCc2ccccc2)c2cnn(C)c2n1	0.91	nt
Cc1nn(Cc2ccc(C(=O)Oc3ccc(Cl)cc3)o2)c(C)c1Br	nt	-1.32
CCc1ccc(C(=O)CC2(O)C(=O)N(CC)c3ccc(Br)cc32)cc1 (stereo not drawn)	nt	0.01
CC1C(=O)Nc2ccc(S(=O)(=O)N3CCCC3)cc2NC1=O (stereo not drawn)	1.34	-1.1
CCCCNCc1c(C(=O)O)c(C)n(-c2ccc(Cl)cc2)c1C	0.83	nt
Cc1nn(C(C)C(=O)N2CCc3ccccc32)c(=O)c2nn(-c3ccccc3)c(C)c12 (stereo not drawn)	-0.55	nt
Cc1noc(C)c1S(=O)(=O)N1CCC(C(=O)N2CCCC2)CC1	0.22	-1.86
COC(=O)c1c(N)sc2c1CCC(C)C2 (stereo not drawn)	1.04	nt
CCCCOCC1CC2(CC(C)(c3csc(Nc4ccccc4Cl)n3)OC2=O)C(=O)O1 (stereo not drawn)	-16.2	-0.56
Cc1nnc(NC(=O)CCn2c(=O)sc3ccccc32)s1	nt	-1.64
Cc1nn(CC(=O)NCCCN(C)C2CCCCC2)c(=O)c2cc3sccc3n12	nt	-1.87
Clc1ccc(C2C=C(c3ccccc3)Nc3ncnn32)cc1 (stereo not drawn)	0.54	-4.13
CCCN1C(=O)C2(/C(=C(/O)c3ccc(OCC)cc3)C(=O)C(=O)N2CCN(C)C)c2ccccc21 (stereo not drawn)	-0.06	-1.02
CC(=O)Nc1ccc(S(=O)(=O)[C@H]2CS(=O)(=O)C[C@@H]2NC(C)C)cc1	0.27	-2.21
CCOc1ccc(C2C(C(=O)OCCSCC)=C(C)NC3=C2C(=O)CCC3)cc1 (stereo not drawn)	-1.65	0.51
O=C(NC(=S)Nc1cccc(C(F)(F)F)c1)c1ccc2nonc2c1	nt	1.2
CC(C)CS(=O)(=O)c1oc(-c2ccc(F)cc2)nc1S(=O)(=O)c1ccccc1	-1.89	-3.42
Cc1cc(C)c(-c2c(Nc3ccc(F)cc3C)c(=O)c2=O)cc1C	-1.38	nt
CNC(=O)c1c(NC(=O)c2ccccc2Cl)sc2c1CCC2	-0.83	nt
NC(=O)C1CCN(CC(O)Cc2ccc3c(c2)OCO3)CC1 (stereo not drawn)	nt	-1.88
Cc1sc2nc(CS(=O)(=O)c3ccccc3)[nH]c(=O)c2c1-c1ccccc1	0.07	-1.4
CCOc1ccc(OCC)c(NS(=O)(=O)c2cc(-c3cc(C)no3)ccc2C)c1	0.71	nt
CCCCOc1ccccc1N1CC(O)=C(c2nc3ccccc3[nH]2)C1=N	0.7	-1.23
Cc1cc(C)n(-c2ncnc3sc4c(c23)CC(C)CC4)n1 (stereo not drawn)	nt	0.88

Next section.
SMILES	TAR Tat displ	CDC25B CDK2 inh
CCCCNc1nc(NCc2cc(OC)ccc2OC)c2cnn(C)c2n1	1.98	nt
Cc1nn(CCCC(=O)NC2CCCCC2)c(=O)c2cc3occc3n12	1.11	-1.09
Cc1[nH]nc(N)c1Br	nt	-1.19
Cc1noc2ncnc(Nc3cccc(Cl)c3)c12	2.41	nt
Cc1cccc(CN[C@H]2CS(=O)(=O)C[C@@H]2S(=O)(=O)c2ccc(F)c(C)c2)c1	-0.45	-0.07
COc1cccc(-c2ccnc3[nH]n(-c4ccccc4)c(=O)c23)c1	-3.1	-1.49
O=S(=O)(c1ccc2c(c1)OCCO2)N1CCC(c2nnnn2-c2ccccc2)CC1	-0.88	-2.08
COC(=O)c1ccc(C2c3c(oc4ccc(C)cc4c3=O)C(=O)N2CCCN(C)C)cc1 (stereo not drawn)	1.13	-2.06
Nc1ccc2nc(N3CCN(c4ccccc4F)CC3)cc(C(=O)O)c2c1	-1.92	nt
Cc1nc(-c2cccs2)c(CC(=O)N2CCOCC2)s1	0.29	-1.66
CC(C)CCNC(=O)CCc1nnc2ccc(N3CCC(C)CC3)nn12	0.32	nt
COC(=O)c1nnn(-c2ccc(Cl)cc2)c1C(=O)OC	-1.12	-1.58
CCOC(=O)c1cnc(SCC(=O)c2cc(Cl)c(Cl)s2)nc1N	nt	-0.86
O=c1c2cccnc2n(Cc2ccc(Cl)cc2)c(=O)n1Cc1ccc(F)cc1	-0.62	-0.56
O=S(=O)(NCc1ccc(-c2ccc(F)cc2F)o1)c1ccccc1	nt	-0.18
CCN(c1ccccc1)c1nnc(NC(=O)Nc2ccccc2F)s1	1.89	0.02
Cc1nc2ccccc2n1CCCOc1ccc(Cl)cc1	0.74	1.22
Cc1cc(C)c(-c2c(NCc3ccccn3)c(=O)c2=O)cc1C	-0.64	nt
Cc1nn2cc(-c3ccccc3)cc2c2c(C)n(Cc3ccccc3)c(C)c12	0.12	-0.81
COc1cc(-c2ccc(NC(=O)c3cc4ccccc4cc3O)c(OC)c2)ccc1NC(=O)c1cc2ccccc2cc1O	nt	-2.37
O=C1CSC(c2ccccc2F)N1CCN1CCCCC1 (stereo not drawn)	0.36	-3.16
Cn1/c(=N\N=C2CCCCC2)sc2ccccc21	nt	-2.17
CC(=O)N(c1ccccc1)C1CC(C)N(C(=O)c2cccs2)c2ccccc21 (stereo not drawn)	-0.51	-1.16
CC1=C(c2ccc(C)cc2)S(=O)(=O)N=C1N1CC(C)CC(C)C1 (stereo not drawn)	1.14	-8.46

Structures shown so far that have a thiophene ring, fused or not (13):
SMILES	TAR Tat displ	CDC25B CDK2 inh
COc1ccc(CNS(=O)(=O)c2ccc(-c3ccc(=O)[nH]n3)s2)cc1	0.33	nt
COC(=O)c1scc2c(Sc3nccn3C)cc(C(F)(F)F)nc12	nt	-0.24
O=S(=O)(c1ccc(F)cc1)N1CCCC1c1cccs1 (stereo not drawn)	0.07	1.54
Cc1ccc(NS(=O)(=O)c2cc(-c3noc(C4CC4)n3)cs2)c(Cl)c1	1.04	nt
CSC(=CC(=O)c1sc2scc(C)c2c1C)SC	nt	-2.27
COC(=O)c1c(N)sc2c1CCC(C)C2 (stereo not drawn)	1.04	nt
Cc1nn(CC(=O)NCCCN(C)C2CCCCC2)c(=O)c2cc3sccc3n12	nt	-1.87
CNC(=O)c1c(NC(=O)c2ccccc2Cl)sc2c1CCC2	-0.83	nt
Cc1sc2nc(CS(=O)(=O)c3ccccc3)[nH]c(=O)c2c1-c1ccccc1	0.07	-1.4
Cc1cc(C)n(-c2ncnc3sc4c(c23)CC(C)CC4)n1 (stereo not drawn)	nt	0.88
Cc1nc(-c2cccs2)c(CC(=O)N2CCOCC2)s1	0.29	-1.66
CCOC(=O)c1cnc(SCC(=O)c2cc(Cl)c(Cl)s2)nc1N	nt	-0.86
CC(=O)N(c1ccccc1)C1CC(C)N(C(=O)c2cccs2)c2ccccc21 (stereo not drawn)	-0.51	-1.16

Screens as filed in PubChem.
